# Choline anaer gr – inhibitors of anaerobic choline-dependent gram-negative bacterial growth; AID 1963822; actives 0.2% (n = 55,000); calls only; Gram-negative bacterium anaerobic choline minimal medium, absorbance growth; active compounds read low; many inactives read as strong as hits in the columns shown;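 active means growth z-score on choline under -2 at 7 or 20 h with little or no fall on glycerol, limits in tiers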;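 further: stock transfer was 300 nL into about 50 µL; the organism is E. coli; final concentration not given here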
# Choline anaer gr early – recorded beside Choline anaer gr, whose call it bears; z-score; measured here: choline growth z-score, timepoint 1;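 score of optical density at 7 h as mean of two plates; lower means less growth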
# The depositor's hits bear a star; i = inactive; & = joins results of further samples. An excerpt, so the mix of outcomes need not match the whole.
CCN(CC)C(=O)CN1C(=O)CN=C(c2ccc(OC)cc2)c2c1sc1c2CCCC1
  Choline anaer gr: i	Choline anaer gr early: 0.34
Cc1ccc(NC(=O)CCc2nc(C3=CCN(Cc4cccc(Cl)c4)CC3)no2)cc1F
  Choline anaer gr: i	Choline anaer gr early: 0.54
O=C1OCCN1N=Cc1ccc([N+](=O)[O-])o1
  Choline anaer gr: i	Choline anaer gr early: -2.7
N#CC1=CN(c2ccc(F)c(F)c2)c2ccccc2S1(=O)=O
  Choline anaer gr: i	Choline anaer gr early: -0.38
CN1[C@@H]2CC[C@H]1CC(OC(=O)N1Cc3ccccc3NC1=O)C2 (stereo partly specified)
  Choline anaer gr: i	Choline anaer gr early: 0.15
Cc1ccc(NC(=O)CCc2nc(C3=CCN(Cc4ccc(Cl)cc4)CC3)no2)cc1F
  Choline anaer gr: i	Choline anaer gr early: -0.61
Cc1cc(NC(=O)c2cccn(Cc3cccc(F)c3)c2=O)ccc1Br
  Choline anaer gr: i	Choline anaer gr early: 2.1
CC(C)n1c(C2CCCNC2)n[nH]c1=O (stereo unspecified)
  Choline anaer gr: i	Choline anaer gr early: 0.06
CCOc1ccccc1NC(=O)N1Cc2ccccc2-n2cccc2C1c1ccc(Cl)cc1 (stereo unspecified)
  Choline anaer gr: i	Choline anaer gr early: 0.77
O=P(O)(O)C(Cl)(Cl)P(=O)(O)O
  Choline anaer gr: i	Choline anaer gr early: 0.09&-0.53

C[C@]12CCC(=O)C=C1C=C[C@@H]1[C@@H]2CC[C@@]2(C)[C@H]1CC[C@@]2(O)CCC(=O)O
  Choline anaer gr: i	Choline anaer gr early: -3
Cn1cc(C2=CCN(CC(=O)Nc3ccc(F)cc3)CC2)cn1
  Choline anaer gr: i	Choline anaer gr early: 0.27
Cc1ccc(-n2nc(C)c3c2NC(=O)CSC3c2ccc3c(c2)OCO3)cc1Cl (stereo unspecified)
  Choline anaer gr: i	Choline anaer gr early: 0.45
CC[C@]12C=CCN3CCC4(c5ccc(OC)cc5N(C)[C@H]4C(O)(C(=O)OC)[C@@H]1OC(C)=O)C32 (stereo partly specified)
  Choline anaer gr: i	Choline anaer gr early: -1.4
O=c1cccc2n1CC1CC2CN(Cc2nnc(-c3cccc(Br)c3)o2)C1 (stereo unspecified)
  Choline anaer gr: i	Choline anaer gr early: 0.32
C[C@]12CCC3[C@@H](CC[C@@]45O[C@@H]4C(O)=C(C#N)C[C@]35C)C1CC[C@@H]2O (stereo partly specified)
  Choline anaer gr: i	Choline anaer gr early: 0.32
CCC(COC(=O)c1cc(OC)c(OC)c(OC)c1)(c1ccccc1)N(C)C (stereo unspecified)
  Choline anaer gr: i	Choline anaer gr early: 0.17&0.41&-0.1
Cc1cc(C(C#N)c2ccc(Cl)cc2)c(Cl)cc1NC(=O)c1cc(I)cc(I)c1O (stereo unspecified)
  Choline anaer gr: i	Choline anaer gr early: -1.1&-0.18&-0.32&0.05
O=C(NCC1CCCO1)c1cc2cccnc2n(Cc2ccc(F)cc2)c1=O (stereo unspecified)
  Choline anaer gr: i	Choline anaer gr early: -0.86
CC(C(=O)Nc1ccc(F)cc1)N1C(=O)CN=C(c2ccc(F)cc2)c2c1sc1c2CCCC1 (stereo unspecified)
  Choline anaer gr: i	Choline anaer gr early: 0.56

COc1ccc2c(c1)C1(CCN(S(=O)(=O)c3ccc(OC)c(OC)c3)C1)C(=O)N2C (stereo unspecified)
  Choline anaer gr: i	Choline anaer gr early: -0.2
CCCN1CCC[C@@H](c2cccc(O)c2)C1
  Choline anaer gr: i	Choline anaer gr early: -0.16
Cc1ccc(-c2nc3ccc(C)cn3c2CC(=O)N(C)C)cc1
  Choline anaer gr: i	Choline anaer gr early: 0.19
C[C@]12CCC3[C@@H](CC[C@@H]4C[C@H](O)CC[C@]34C)[C@@H]1CCC2=O (stereo partly specified)
  Choline anaer gr: i	Choline anaer gr early: 0.38
CCCN(CCC)C1Cc2cc(OC)c(OC)cc2C1
  Choline anaer gr: i	Choline anaer gr early: 1.5&0.2
C[C@H](N)Cc1cnc[nH]1
  Choline anaer gr: i	Choline anaer gr early: 0.92
CN(C(=O)Cc1ccccc1)C(CN1CCCC1)c1ccccc1 (stereo unspecified)
  Choline anaer gr: i	Choline anaer gr early: 0.47
CCOC(=O)Cc1ccc(NC(=O)N2Cc3ccccc3-n3cccc3C2c2ccccc2)cc1 (stereo unspecified)
  Choline anaer gr: i	Choline anaer gr early: 2.1
Oc1cc2c(cc1O)[C@H]1c3ccccc3CN[C@@H]1CC2
  Choline anaer gr: i	Choline anaer gr early: -0.14
CN(C)Cc1c[nH]c2ccccc12
  Choline anaer gr: i	Choline anaer gr early: 0.5

CCOCCCNC(=O)N1CCC2(C1)C(=O)Nc1ccc(OC)cc12 (stereo unspecified)
  Choline anaer gr: i	Choline anaer gr early: -0.67
CCCCC/C=C\C/C=C\C/C=C\C/C=C\CCCC(=O)N[C@H](C)CO
  Choline anaer gr: i	Choline anaer gr early: -0.37
CN1CC[C@@]2(C)c3cc(O)ccc3N(C)[C@H]12
  Choline anaer gr: i	Choline anaer gr early: 0.46
c1ccc2[nH]c(C3CCNCC3)nc2c1
  Choline anaer gr: i	Choline anaer gr early: 0.14
C[C@@]1(CO)[C@H](O)CC[C@@]2(C)[C@H]1CC[C@H]1C[C@@H]3C[C@@]12CC[C@]3(O)CO
  Choline anaer gr: i	Choline anaer gr early: 0.74
c1ccc2sc(C3(N4CCCCC4)CCCCC3)cc2c1
  Choline anaer gr: i	Choline anaer gr early: 0.11&-0.65
Cc1ccc(Cn2cccc(C(=O)Nc3nnc(C)s3)c2=O)cc1
  Choline anaer gr: i	Choline anaer gr early: -0.69
Cc1cccc(C)c1NC(=O)CN1CCCC1=O
  Choline anaer gr: i	Choline anaer gr early: 1.3
COC[C@H]1OC(=O)c2coc3c2[C@@]1(C)C1=C(C3=O)C2CCC(=O)[C@@]2(C)C[C@H]1OC(C)=O (stereo partly specified)
  Choline anaer gr: i	Choline anaer gr early: 1.2
CC[C@@H](C(N)=O)N1CCCC1=O
  Choline anaer gr: i	Choline anaer gr early: 0.63&0.06&-0.54

C[C@@H]([C@H](O)c1ccccc1)N(C)C
  Choline anaer gr: i	Choline anaer gr early: 0.26
COc1ccc(C2SCC(=O)Nc3c2c(-c2ccccc2)nn3-c2ccccc2)cc1 (stereo unspecified)
  Choline anaer gr: i	Choline anaer gr early: 0.31
Fc1ccc(F)c(C2NCCc3[nH]cnc32)c1 (stereo unspecified)
  Choline anaer gr: i	Choline anaer gr early: 0.26
CCNC(=O)N1CCC2(C1)C(=O)N(C)c1ccc(OC)cc12 (stereo unspecified)
  Choline anaer gr: i	Choline anaer gr early: 0.83
COc1ccc(C2NCCc3[nH]cnc32)cc1OC (stereo unspecified)
  Choline anaer gr: i	Choline anaer gr early: 0.79
O=C(Nc1cc(F)ccc1F)c1cccn(Cc2ccc(Br)cc2)c1=O
  Choline anaer gr: i	Choline anaer gr early: 0.82
NC(=NCCC[C@H](N)C(=O)O)N[N+](=O)[O-]
  Choline anaer gr: i	Choline anaer gr early: 0.35
OC(CN(Cc1ccccc1)Cc1ccccc1)c1ccc2cc[nH]c2c1 (stereo unspecified)
  Choline anaer gr: i	Choline anaer gr early: -0.29
O=C(COc1ccccc1F)N1CCN(Cc2cc(=O)n3nc(-c4ccccc4F)sc3n2)CC1
  Choline anaer gr: i	Choline anaer gr early: 0.47
C=CCN1CC[C@]23c4c5ccc(O)c4O[C@H]2C(=O)CC[C@@]3(O)C1C5
  Choline anaer gr: i	Choline anaer gr early: -0.15

CCCC(=O)OCC[N+](C)(C)C
  Choline anaer gr: i	Choline anaer gr early: 1.1
CNc1ccc2oc(C[C@@H]3OC4(CC[C@@H]3C)O[C@H](C(C)C(=O)c3ccc[nH]3)[C@H](C)C[C@H]4C)nc2c1C(=O)O (stereo partly specified)
  Choline anaer gr: i	Choline anaer gr early: -0.07
CN(C)CCCNC(=O)c1cc2cccnc2n(Cc2ccc(F)cc2)c1=O
  Choline anaer gr: i	Choline anaer gr early: 1.3
COc1ccc(NC(=O)c2cccn(Cc3cccc(F)c3)c2=O)c(OC)c1
  Choline anaer gr: i	Choline anaer gr early: 0.82
NCCc1ccccn1
  Choline anaer gr: i	Choline anaer gr early: -0.01&0.4
Ic1ccccc1CNC1C2CCN(CC2)C1C(c1ccccc1)c1ccccc1 (stereo unspecified)
  Choline anaer gr: i	Choline anaer gr early: -0.48
CCC(=O)N1CCC2(C1)C(=O)Nc1ccc(OC)cc12 (stereo unspecified)
  Choline anaer gr: i	Choline anaer gr early: -0.45
NC1=NC(=O)N2CC12 (stereo unspecified)
  Choline anaer gr: i	Choline anaer gr early: 0.09
Oc1ccc2c3c1O[C@H]1[C@@H](O)CC[C@@]4(O)[C@@H](C2)N(CC2CCC2)CC[C@]314
  Choline anaer gr: i	Choline anaer gr early: 0.39&-0.84
CCCN(CCC)C1CCc2cccc(O)c2C1 (stereo unspecified)
  Choline anaer gr: i	Choline anaer gr early: 0.37&0.56

CCn1cc(C(=O)O)c(=O)c2ccc(C)nc21
  Choline anaer gr: i	Choline anaer gr early: -2.6&-3
O=c1[nH]oc2c1CCNC2
  Choline anaer gr: i	Choline anaer gr early: 0.2&0.14&-0.02
C[C@H](N)[C@H](O)c1ccc(O)c(O)c1
  Choline anaer gr: i	Choline anaer gr early: 0.61
CC(=O)N1CCC2(CC1)c1cccn1-c1ccccc1CN2C(=O)Nc1ccc(C)cc1C
  Choline anaer gr: i	Choline anaer gr early: -0.08
S=C(NC1CCCCC1)N1CCC(c2cnc[nH]2)CC1
  Choline anaer gr: i	Choline anaer gr early: 0&0.64&0.09
CC(=O)[C@H]1CC[C@H]2[C@@H]3CCC4C[C@](C)(O)CC[C@]4(C)[C@H]3CC[C@]12C (stereo partly specified)
  Choline anaer gr: i	Choline anaer gr early: 0.22

# Molecules listed so far with fluorine, in the order listed:
Cc1ccc(NC(=O)CCc2nc(C3=CCN(Cc4cccc(Cl)c4)CC3)no2)cc1F
  Choline anaer gr: i	Choline anaer gr early: 0.54
N#CC1=CN(c2ccc(F)c(F)c2)c2ccccc2S1(=O)=O
  Choline anaer gr: i	Choline anaer gr early: -0.38
Cc1ccc(NC(=O)CCc2nc(C3=CCN(Cc4ccc(Cl)cc4)CC3)no2)cc1F
  Choline anaer gr: i	Choline anaer gr early: -0.61
Cc1cc(NC(=O)c2cccn(Cc3cccc(F)c3)c2=O)ccc1Br
  Choline anaer gr: i	Choline anaer gr early: 2.1
Cn1cc(C2=CCN(CC(=O)Nc3ccc(F)cc3)CC2)cn1
  Choline anaer gr: i	Choline anaer gr early: 0.27
O=C(NCC1CCCO1)c1cc2cccnc2n(Cc2ccc(F)cc2)c1=O (stereo unspecified)
  Choline anaer gr: i	Choline anaer gr early: -0.86
CC(C(=O)Nc1ccc(F)cc1)N1C(=O)CN=C(c2ccc(F)cc2)c2c1sc1c2CCCC1 (stereo unspecified)
  Choline anaer gr: i	Choline anaer gr early: 0.56
Fc1ccc(F)c(C2NCCc3[nH]cnc32)c1 (stereo unspecified)
  Choline anaer gr: i	Choline anaer gr early: 0.26
O=C(Nc1cc(F)ccc1F)c1cccn(Cc2ccc(Br)cc2)c1=O
  Choline anaer gr: i	Choline anaer gr early: 0.82
O=C(COc1ccccc1F)N1CCN(Cc2cc(=O)n3nc(-c4ccccc4F)sc3n2)CC1
  Choline anaer gr: i	Choline anaer gr early: 0.47
CN(C)CCCNC(=O)c1cc2cccnc2n(Cc2ccc(F)cc2)c1=O
  Choline anaer gr: i	Choline anaer gr early: 1.3
COc1ccc(NC(=O)c2cccn(Cc3cccc(F)c3)c2=O)c(OC)c1
  Choline anaer gr: i	Choline anaer gr early: 0.82

# From PubChem BioAssay
